# Rango dissoc inh: prevents RanGTP from dissociating the Rango-importin beta complex; O95149+P62826; Biochemical FRET Rango-importin beta, RanGTP-induced dissociation; Potency, µM (series often up to 46.1 µM), inactives show at the highest dose activity change, negative = inhibition; actives 0.071% (n = 340,000); active means falling FRET ratio curve, often poorly fitted, with flat reads before Ran was added; inconclusive means other falling curves, or compound fluorescence or quenching; inactive means flat or rising ratio curve;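 further: potency means the concentration at half of the fitted maximal effect; % of control where 0% means no effect; nearly all actives have a fitted effect of over 45% in size; -100% = wells without RanGTP and RCC1; the record marks most hits as doubtful in a second field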
#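 Compounds preincubate 5 min with complex of recombinant Rango and importin beta in PBS with 1 mM DTT. Ran (0.6 uM) loaded with 2 mM GTP plus 0.2 uM RCC1 starts dissociation; FRET is recorded 45 min later.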
# miR-21 reporter: miR-21 reporter, rising signal | HeLa miR-21 FLuc reporter, luciferase, 48 h | Potency, µM (titrated, usually from 38.3 µM), for inactives: at the top dose reporter change, positive = more light | 340,000 tested, under 10 active | AID 2288; active = well fitted rising curve with a large enough effect; inconclusive = small, poorly fitted or top-dose-only effect; inactive = no such curve, though single readings can be large or run the other way;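 further: % of control where 0% means no effect; miR-21 action dims this reporter so a rising signal means less miR-21 action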
#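 HeLa cells endogenously expressing miR-21, stably carrying CMV-driven firefly luciferase with a downstream miR-21 binding site, 2000 cells/well. Titrations up to approximately 40 uM, 48 hours; luciferase luminescence read.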
# Rango complex inh: Rango-importin beta binding inhibition. Potency, µM (highest dose often 92.2 µM), inactives show at the top dose inhibition of complex formation. Rango CFP/YFP FRET sensor + importin beta, 45 min. actives 0.031% (n = 340,000). Q14974; active = rising FRET ratio curve, often small or poorly fitted; inconclusive = mostly compound fluorescence or quenching in the first reads; inactive = flat curves in all reads;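 further: potency means the concentration at half of the fitted maximal effect; 0% = DMSO wells and 100% = buffer wells lacking importin beta; nearly all actives have a fitted effect of over 15% in size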
# Target sequence (Q14974 whole entry, looked up): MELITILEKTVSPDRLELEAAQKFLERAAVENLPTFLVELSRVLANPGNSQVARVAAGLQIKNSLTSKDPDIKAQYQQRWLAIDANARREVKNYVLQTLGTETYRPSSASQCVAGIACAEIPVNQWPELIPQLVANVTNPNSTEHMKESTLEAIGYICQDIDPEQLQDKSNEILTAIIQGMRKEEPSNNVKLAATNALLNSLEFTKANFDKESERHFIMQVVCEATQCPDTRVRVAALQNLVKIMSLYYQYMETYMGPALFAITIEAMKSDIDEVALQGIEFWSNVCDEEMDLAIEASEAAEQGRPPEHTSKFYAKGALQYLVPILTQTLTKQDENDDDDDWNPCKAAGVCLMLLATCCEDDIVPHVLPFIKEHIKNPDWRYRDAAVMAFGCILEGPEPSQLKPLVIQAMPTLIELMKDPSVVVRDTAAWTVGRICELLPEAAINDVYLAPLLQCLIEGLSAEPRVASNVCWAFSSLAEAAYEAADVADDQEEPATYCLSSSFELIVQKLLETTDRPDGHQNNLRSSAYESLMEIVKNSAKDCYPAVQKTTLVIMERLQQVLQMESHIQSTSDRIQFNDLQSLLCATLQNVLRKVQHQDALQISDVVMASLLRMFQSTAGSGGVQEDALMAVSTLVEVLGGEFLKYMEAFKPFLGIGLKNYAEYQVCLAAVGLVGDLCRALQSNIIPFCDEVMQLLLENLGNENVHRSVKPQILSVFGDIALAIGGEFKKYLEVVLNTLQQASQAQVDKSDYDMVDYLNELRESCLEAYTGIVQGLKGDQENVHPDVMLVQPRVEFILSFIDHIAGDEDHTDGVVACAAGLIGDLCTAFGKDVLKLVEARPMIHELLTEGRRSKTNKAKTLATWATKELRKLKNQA
#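 FRET biosensor (snurportin 1 IBB flanked by EYFP and cerulean), 50 nM, with compound 5 min, then 0.125 microM importin beta in PBS, 1 mM DTT, 0.02% Tween-20, 0.1% BSA. CFP/YFP ratio read after 45 min at room temperature; pre-read flags interference.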
# GLA inh pH 4.5: blocks human alpha-galactosidase A at pH 4.5; activity change, negative = inhibition, % at 105 µM; purified enzyme, 4-MU-alpha-Gal fluorescence, pH 4.5; P06280; 230,000 tested, under 10 active; inconclusive = small, poorly fitted or top-dose-only inhibition, or a rising curve; inactive = flat fitted curve, though single readings scatter; no compound was filed as active;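 further: 0% = full activity with enzyme and -100% = basal without enzyme; dose as in the result columns while the protocol names 77 µM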
# * = called active by the depositor; ? = inconclusive; / = not tested or not shown.
# Sample of the layout, six compounds:
SMILES,Rango dissoc inh,miR-21 reporter,Rango complex inh,GLA inh pH 4.5
C/C(=N\N=C\c1ccc(N(C)C)cc1)c1cccc([N+](=O)[O-])c1,-30%,-61%,?,-9
CC1CCCC(C)N1CC(O)COc1c(F)cc(Br)cc1F (stereo not drawn),8%,-2%,0.7%,-2
CCOC(=O)c1nn(-c2ccc(OCC)cc2)c2nc(CC(C)C)c(C#N)c(=O)n12,-2%,-7%,2.7%,16
COc1ccc(C(=O)NCC(=O)N2CCN(C(=O)c3ccco3)CC2)cc1[N+](=O)[O-],11%,/,4.3%,/
CCc1nnc(NS(=O)(=O)c2ccc(NC(=O)C(c3ccccc3)c3ccccc3)cc2)s1,11%,/,1.7%,/
COc1ccccc1-c1c(C)oc2c(CN3CCCCC3C)c(O)ccc2c1=O (stereo not drawn),-4%,0%,-2.4%,/

# This part in full, previewed entries included:
SMILES,Rango dissoc inh,miR-21 reporter,Rango complex inh,GLA inh pH 4.5
C/C(=N\N=C\c1ccc(N(C)C)cc1)c1cccc([N+](=O)[O-])c1,-30%,-61%,?,-9
CC1CCCC(C)N1CC(O)COc1c(F)cc(Br)cc1F (stereo not drawn),8%,-2%,0.7%,-2
CCOC(=O)c1nn(-c2ccc(OCC)cc2)c2nc(CC(C)C)c(C#N)c(=O)n12,-2%,-7%,2.7%,16
COc1ccc(C(=O)NCC(=O)N2CCN(C(=O)c3ccco3)CC2)cc1[N+](=O)[O-],11%,/,4.3%,/
CCc1nnc(NS(=O)(=O)c2ccc(NC(=O)C(c3ccccc3)c3ccccc3)cc2)s1,11%,/,1.7%,/
COc1ccccc1-c1c(C)oc2c(CN3CCCCC3C)c(O)ccc2c1=O (stereo not drawn),-4%,0%,-2.4%,/
COc1ccc(C(=O)COC(=O)CCN2C(=O)C3C4CC(C(Br)C4Br)C3C2=O)cc1 (stereo not drawn),-9%,1%,0.3%,-2
O=C(NCc1ccccc1Br)C1CCCO1 (stereo not drawn),17%,-3%,-1.2%,/
CC(=NO)c1ccc2c(c1)Cc1cc([N+](=O)[O-])ccc1-2,2%,/,-0.5%,/
Cn1c(Cn2c(=O)sc3ccccc32)nnc1SCc1cccnc1,-14%,-10%,2.6%,1
C[C@H](NC(=O)OC(C)(C)C)c1nnc(SCC(=O)c2ccc(Cl)cc2)o1,-1%,2%,-7.4%,1
O=C(c1cc2cc(Cl)ccc2[nH]1)N1CCCCC1,-4%,-38%,0.3%,/
O=C(Nc1nc(-c2cccnc2)cs1)c1ccccc1Cl,-4%,-6%,0.7%,6
O=C(O)C1C2C=CC(C2)C1C(=O)NCc1cccc(Cl)c1 (stereo not drawn),10%,11%,-0.7%,/
CCCCNC(=O)N1CCCN(c2ccc(C#N)cn2)CC1,6%,5%,0.1%,/
Cc1c(S(=O)(=O)Nc2ccc(Br)cc2)c(=O)n(C)c(=O)n1C,17%,3%,-0.3%,/
CC1CCC2(CC1)NC(=O)N(CC(=O)NCc1ccc3c(c1)OCO3)C2=O (stereo not drawn),0%,-4%,-0.4%,-6
Cc1cc(C(=O)O)n(C(C)(C)C)n1,24%,0%,4.6%,1
COc1ccc(CNC(=O)c2cnccn2)cc1,4%,-5%,3.2%,2
CCOC(=O)c1ccc(NC(=O)CSc2nnc(C3CC3)n2CC)cc1,8%,-1%,2.8%,-7
O=C(Cn1ncc2c1-c1ccccc1OC2)Nc1cccc(Cl)c1,4%,3%,-4.7%,5
COc1ccc(C(C(=O)NCc2ccccc2)N(Cc2ccc3c(c2)OCO3)C(=O)c2cnccn2)cc1 (stereo not drawn),7%,-3%,-0.1%,-4
CCN(Cc1cc2cc(C)ccc2[nH]c1=O)C(=O)c1cccc(OC)c1,4%,0%,0.0%,2
Cn1nnnc1SCC(=O)NCc1ccc2c(c1)OCO2,-6%,-9%,0.6%,1
COc1cc(C(=O)Oc2ccc(C(=S)N3CCOCC3)cc2)cc(OC)c1OC,14%,1%,0.3%,/
Cn1nccc1C(=O)N1CCN(c2ccccc2F)CC1,12%,-7%,1.7%,/
CCOC(=O)C/C(N)=N/NC(=O)c1ccc(Cl)cc1Cl,0%,1%,-4.3%,2
N#CC1(Nc2ccc(-c3ccc(Cl)cc3)cc2)CCCC1,10%,/,-0.9%,/
CC(C)(C)NC(=O)CSc1nncn1NCc1cccc2ccccc12,-9%,-11%,2.6%,-3
O=C(CCCCCl)Nc1c2c(nc3ccccc13)CCC2,1%,-5%,0.7%,/
Cc1ccc(-n2c(N)c(C(=O)N3CCCCC3)sc2=S)cc1,-6%,-29%,-5.9%,-6
CCOC(=O)N1CCC(N2C(=O)c3ccc(C(=O)NCc4ccc(F)cc4)cc3C2=O)CC1,8%,-2%,-0.5%,0
O/N=C/c1cn(-c2ccccc2)nn1,0%,-33%,-1.9%,-23
C=CCN(c1ccc(C(=O)NCCSc2ccccc2)cc1)S(C)(=O)=O,2%,-17%,-1.5%,/
O=C(NN1C(=O)C2C3C=CC(O3)C2C1=O)c1ccncc1 (stereo not drawn),3%,-7%,0.0%,-2
C/C(=N\NC(=O)c1ccc(NS(=O)(=O)c2cccs2)cc1)c1ccc2ccccc2c1,-4%,-21%,-1.0%,4
COC(=O)c1ccc2c(=O)n(CCN3CCOCC3)c(SCC(=O)Nc3ccc(C)cc3)nc2c1,1%,2%,-1.4%,/
O=C(O)CC(C(=O)O)c1ccc(OCCCCOc2ccc(C(CC(=O)O)C(=O)O)cc2)cc1 (stereo not drawn),7%,0%,-2.2%,/
COc1cc2c(C(=O)NCc3ccccn3)cn(C)c(=O)c2cc1OC,-16%,1%,-0.5%,0
COc1cc(CNC(=O)c2cnccn2)cc(OC)c1,-18%,/,-2.1%,/
Cc1ccc(OCC(=O)Nc2ccc(S(=O)(=O)Nc3ccccn3)cc2)cc1,7%,2%,-2.1%,4
Cc1cc(N2CCCCCC2)nc2ccccc12,-3%,-16%,-1.9%,0
Cc1ccccc1C(=O)Nc1ccnn1C1CCN(CC2CC=CCC2)CC1 (stereo not drawn),13%,0%,0.2%,/
COc1ccc(NC(=O)c2cccc(N3C(=O)c4cccc([N+](=O)[O-])c4C3=O)c2)cc1,-14%,6%,0.7%,/
Cc1ccc(NC(=O)CN(C)CC(=O)Nc2ccc(F)c(Cl)c2)cc1,7%,6%,4.4%,-2
CCCN(CCC)CCNC(=O)C1CCN(S(=O)(=O)c2cccc3nsnc23)CC1,14%,-6%,4.7%,/
CC(C)CCN(C(=O)CCSc1ccc(F)cc1)c1c(N)n(Cc2ccccc2)c(=O)[nH]c1=O,-12%,/,0.7%,/
Cc1ccc(NC(=O)N2CCC(C(=O)c3ccc(F)cc3)CC2)cc1,13%,7%,-0.2%,/
CCCCN1C(=O)C(O)(CC(=O)c2c(C)n[nH]c2C)c2cc(Br)ccc21 (stereo not drawn),6%,-7%,3.0%,-3
CC(/C=C/c1ccccc1)=N/NC(=O)CCC(=O)Nc1ccccc1C,17%,2%,4.2%,-4
# (next part)
SMILES,Rango dissoc inh,miR-21 reporter,Rango complex inh,GLA inh pH 4.5
O=C(Cc1ccc(Br)cc1)NCc1ccccc1,-2%,-1%,-3.5%,/
Cc1nnc(NC(=O)C2CCN(c3nnnn3-c3ccccc3)CC2)s1,29%,-3%,-0.9%,-1
COc1ccc2c(c1)C(=O)C(=O)N2CCS(=O)(=O)c1ccccc1,12%,-2%,0.5%,/
COc1cccc(CN2CCN(Cc3ccco3)CC2)c1,15%,-12%,0.2%,/
O=C(Nc1cccc(C(F)(F)F)c1)c1cccnc1NCCc1ccccc1,2%,-16%,?,-11
Fc1cccc(/C=C2\CCCC3=C2NC(=S)NC3c2cccc(F)c2)c1 (stereo not drawn),-3%,10%,-0.5%,2
CNC1=C([N+](=O)[O-])CC([N+](=O)[O-])=C(N2CCNCC2)N1C,0%,-1%,-3.5%,-12
Cc1cc2cc(CNC(=O)c3ccc(Br)o3)ccc2[nH]1,-18%,0%,?,0
Cc1cccc(NC(=S)NNC(=O)c2cccc([N+](=O)[O-])c2)c1,-6%,-41%,7.6%,-6
CC(C)(C)n1cnc2cc(NC(=O)c3ccccc3)ccc21,-17%,-48%,1.3%,/

# Retrieved by compound from the list above, four records:
SMILES,Rango dissoc inh,miR-21 reporter,Rango complex inh,GLA inh pH 4.5
Cc1nnc(NC(=O)C2CCN(c3nnnn3-c3ccccc3)CC2)s1,29%,-3%,-0.9%,-1
CC(C)(C)n1cnc2cc(NC(=O)c3ccccc3)ccc21,-17%,-48%,1.3%,/
COc1cccc(CN2CCN(Cc3ccco3)CC2)c1,15%,-12%,0.2%,/
O=C(Cc1ccc(Br)cc1)NCc1ccccc1,-2%,-1%,-3.5%,/

# (continued)
SMILES,Rango dissoc inh,miR-21 reporter,Rango complex inh,GLA inh pH 4.5
CN(C)S(=O)(=O)c1cccc(NC(=S)N/N=C/C(c2ccccc2)c2ccccc2)c1,22%,-6%,-3.4%,-3
O=C(NCc1ccccc1)c1onc(CSc2ccc(F)c(F)c2)c1C(=O)NCc1ccccc1,-2%,/,1.8%,/
Cn1c(S(=O)(=O)Cc2ccc(Cl)cc2)nc2ccccc21,-5%,-2%,-0.2%,-3
OC(COc1ccc2ccccc2c1Br)Cn1ccnc1 (stereo not drawn),6%,-2%,-0.4%,-4
CC(C)C(C(=O)O)N1C(=O)/C(=C/C=C/c2ccco2)SC1=S (stereo not drawn),0.0052µM*,-5%,?,-17
CC(C)c1c(C(=O)N/N=C/c2ccsc2)nnn1-c1nonc1N,?,-6%,-0.2%,/
S=c1nc(-c2ccccc2Br)[nH][nH]1,-8%,-14%,0.5%,-4
CCOc1ccc(C(=O)Nc2ccc(NC(=O)c3cccs3)cc2)cc1[N+](=O)[O-],1%,-2%,3.4%,7
COc1ccccc1CN1CCNC(=O)C1CC(=O)N(C)CC1CCOCC1 (stereo not drawn),2%,4%,3.5%,/
C=CCNc1oc(Cc2cccc3ccccc23)nc1C#N,-23%,-12%,-5.9%,-8
COc1cc(C)c(C(C)C)cc1S(=O)(=O)NC1CC(C)(C)NC(C)(C)C1,17%,-3%,-0.2%,/
Cc1ccc(S(=O)(=O)N(CC(O)CN2CCCC2)c2ccccc2)cc1 (stereo not drawn),0%,-7%,-1.7%,-4
Cc1cc(C)[n+]2[nH]c(N)c(N=Nc3ccccc3)c2n1,7%,-49%,-1.9%,-2
Cc1ccc(NC(=O)C(=Cc2ccc(C(=O)O)cc2)C(=O)Nc2ccc(C)cc2C)c(C)c1,10%,?,-0.7%,-6
Cc1ccccc1-c1nc(-c2ccc(Br)o2)no1,-6%,-58%,3.4%,/
O=C(O)C1CCN(c2ccc(S(=O)(=O)N3CCCCC3)cc2[N+](=O)[O-])CC1,-15%,/,-0.8%,/
Cc1ccc(NS(=O)(=O)c2ccc(C(=O)Nc3nncs3)cc2)cc1,-1%,/,-1.9%,/
Cc1nnc(NC(=O)c2ccc3nccnc3c2)s1,2%,/,-3.2%,/
O=C(CN1CCc2ccccc2C1)Nc1ccc(F)cc1,1%,-10%,-0.5%,/
C=CCn1c(=NC(=O)c2ccc(S(=O)(=O)N3CCCc4ccccc43)cc2)sc2cc(S(N)(=O)=O)ccc21,-6%,0%,-5.4%,-7

# Entries of single compounds, quoted from the list.
# Profile of Cc1cc(N2CCCCCC2)nc2ccccc12 = Rango dissoc inh = -3%; miR-21 reporter = -16%; Rango complex inh = -1.9%; GLA inh pH 4.5 = 0
# Profile of CCOC(=O)c1nn(-c2ccc(OCC)cc2)c2nc(CC(C)C)c(C#N)c(=O)n12 = Rango dissoc inh = -2%; miR-21 reporter = -7%; Rango complex inh = 2.7%; GLA inh pH 4.5 = 16

# Other results
SMILES,Rango dissoc inh,miR-21 reporter,Rango complex inh,GLA inh pH 4.5
COc1ccc(CCNC2CCC(c3ccccc3)CC2)cc1 (stereo not drawn),-22%,-4%,-1.2%,/
CCC1(CC)C(C#N)C(=O)NC(=O)C1C#N (stereo not drawn),17%,/,-2.6%,/
COc1ccc(C(=O)CN2C(=O)NC3(CCCCCC3)C2=O)c(OC)c1,-2%,/,0.4%,/
CC1(C)OC(=O)C(=CNC(CCC(N)=O)C(=O)O)C(=O)O1 (stereo not drawn),34%,-1%,?,3
Brc1ccc(Oc2nnnn2-c2ccccc2)cc1,11%,-32%,4.4%,-18
CCOC(=O)Cc1csc(NC(=O)CSc2nnc(-n3nc(C)cc3C)c3ccccc23)n1,7%,4%,-1.5%,-27
CC(=O)c1cn(C)c(=O)c2ccccc12,20%,3%,-0.6%,-9

# Some of the compounds tested; rates above refer to the full screens.
